From PubChem
NPYLR7 agonist = agonists of mosquito NPYLR7 receptor, primary screen, cell-based, Aedes aegypti, calcium fluorescence, mosquito biting behavior. Aedes aegypti neuropeptide Y-like receptor 7 (NPYLR7). HEK293T NPYLR7/Galpha15, GCaMP6s calcium fluorescence. activation, % at 10 µM. actives 0.15% (n = 270,000). AID 1259423, 2018; in the data active = activation above about 40%;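 note: 0% = vehicle and 100% = reference agonist at the receptor; some compounds past the cut are filed as inactive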
NPYLR7 agonist max-min = also measured in NPYLR7 agonist; calls as there; activation, %; measured here: Max-Min RFU normalised activation; some inactives read as strong as hits;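 span of the calcium signal over five minutes; 0% = vehicle and 100% = native peptide agonist; compound fluorescence can raise it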
* marks the source's active call; other numbers are inactive results; & = joins results of further samples. A portion of the library; count on the stated rates, not on these rows.

SMILES | NPYLR7 agonist | NPYLR7 agonist max-min
Cc1cn2c3c(=O)[nH]c(=O)n(C)c3nc2n1CCN1CCN(c2ccc(F)cc2)CC1 | 4 | 6
Cc1cccnc1NC(=O)C1(c2cccs2)CCOCC1 | -14 | -6
COc1ccc(-c2cnc(-c3cccc(CNC(=O)CC(C)C)c3)[nH]2)cc1 | -1 | 2
Cc1ccc(Cl)cc1-n1c(SCc2ccc(F)cc2)nnc1C(C)NC(=O)/C=C/c1ccc([N+](=O)[O-])cc1 (centres undefined) | 25 | 22
CCNC(=O)Nc1ccc(N(C)C)c(CN(CC2CCCO2)C(=O)C(CC)c2ccccc2)c1 (centres undefined) | 4 | 4
O=C(NNS(=O)(=O)c1ccc(F)c(F)c1)c1cncn1-c1ccccc1 | 12 | 5
Cc1ccc(OCC(O)Cn2nnc3ccccc3c2=O)cc1 (centres undefined) | 2 | 2
CN1CCC(N(Cc2ccncc2)C(=O)NCc2cccc(F)c2)CC1 | 16 | 13
O=C(NC(N1CCCC1=O)(C(F)(F)F)C(F)(F)F)c1ccccc1Cl | 0 | -1
CS(=O)(=O)N1CCC(NC(=O)c2cccc(CC3CCNCC3)c2)CC1 | -1 | -10
CC(C)CCn1c(NC2CCCCC2)nc2c1c(=O)[nH]c(=O)n2C | 0 | -4
COc1ccc(-c2ccc(C(=O)NCc3ccc(C(F)(F)F)cc3)s2)c(OC)c1OC | -1 | 12
CCC(CC)C(=O)N(C)c1c(C)nc2c(OCC3CCCCC3)cccn12 | 5 | -4
Cc1nc(SCC(=O)N2CCCCC2C)c2c3c(sc2n1)CCCC3 (centres undefined) | 18 | 11
CC(C)c1nnc2sc(C3CCc4ccccc4C3)nn12 (centres undefined) | -2 | -9
CCCCOCC1CC2(CC(C)(c3csc(N)n3)OC2=O)C(=O)O1 (centres undefined) | -6 | -6
Nc1ccccc1Sc1c[nH]c2ccccc12 | -1 | 20
O=C(Nn1c(-c2ccccc2)csc1=Nc1cccc(Cl)c1)c1ccccc1OC(F)(F)F | -8 | -18
CCOC(=O)N1CCN(C(=O)CSc2nnc3n2CCN3c2ccc(F)cc2)CC1 | -1 | -3
Cc1cc(C)cc(CC(C(=O)Nc2ccccc2)C(C)C(=O)O)c1 (centres undefined) | 6 | 5
CCC(=O)Nc1ccc(N2CCC(OC)CC2)c(C(F)(F)F)c1 | -24 | -22
COCCN(CC(=O)N(CCc1ccccc1)Cc1ccc(C)o1)C(=O)c1ccccc1F | 6 | 13
C#CCOc1ccccc1CNC(=O)NC(c1ccccc1)c1nnc(C)n1C (centres undefined) | 4 | 14
Cc1sc2nc(CSC(C)C(=O)Nc3cccc(C(F)(F)F)c3)[nH]c(=O)c2c1C (centres undefined) | 3 | 2
COc1ccccc1Oc1cc(C(F)(F)F)nc(SCc2ccccc2C)n1 | -1 | 11

An excerpt of these results, with values under each structure:
Order of results – NPYLR7 agonist, NPYLR7 agonist max-min
CCC(CC)C(=O)N(C)c1c(C)nc2c(OCC3CCCCC3)cccn12
 : 5, -4
Cc1nc(SCC(=O)N2CCCCC2C)c2c3c(sc2n1)CCCC3 (centres undefined)
 : 18, 11
CC(C)c1nnc2sc(C3CCc4ccccc4C3)nn12 (centres undefined)
 : -2, -9

Back to the main list, starting 2 compounds before the break.
SMILES | NPYLR7 agonist | NPYLR7 agonist max-min
Cc1sc2nc(CSC(C)C(=O)Nc3cccc(C(F)(F)F)c3)[nH]c(=O)c2c1C (centres undefined) | 3 | 2
COc1ccccc1Oc1cc(C(F)(F)F)nc(SCc2ccccc2C)n1 | -1 | 11
COC(=O)c1ccc(NC(=O)C2CC(=O)N(C)C(=Nc3ccc4c(c3)OCO4)S2)cc1 (centres undefined) | 1 | 1
CNC/C=C/COc1ccccc1C(C)(C)C | -4 | -8
O=C(NC(c1ccc(Cl)cc1)c1ccsc1)C1CCN(CCOc2ccc(F)cc2)CC1 (centres undefined) | 4 | 4
Cc1cc(C)n(CCCNC(=O)c2ccc(S(=O)(=O)C(F)F)cc2)n1 | 2 | -1
C=CCN(C(=O)CN1CCOc2ccccc2C1)C1CCS(=O)(=O)C1 (centres undefined) | 1 | -4
CCN1CCN(Cc2oc(CO)cc(=O)c2O)CC1 | 2 | 8
CCOC(=O)N1CCN(C(=O)CCC2(Cc3ccc(SC)cc3)CCC(=O)N2)CC1 (centres undefined) | 19 | 7
CC(C)c1nnc(NC(=O)C(Br)C(C)C)s1 (centres undefined) | -5 | -11
COc1ccc(C2NC(=S)N3C(c4ccc(OC)cc4)NC(=S)N23)cc1 (centres undefined) | 1&-1 | 1&-3
C=C(C)COc1cccc(C(=O)NCc2cn3cc(C)ccc3n2)c1 | -4 | -8
Cc1noc(-c2ccco2)c1C(=O)NCCC#N | 2 | 3
CCOC(=O)C1(CCCc2ccccc2)CCN(C(=O)c2ccoc2C)CC1 | 5 | 2
CCCOc1ccc(OCCSc2nc3ccccc3n2CC(=O)O)cc1 | -8 | -11
CCCCN(C1CCS(=O)(=O)C1)S(=O)(=O)c1ccc(F)cc1 (centres undefined) | 0 | -3
Nc1cc(-c2ccc(Cl)cc2)nn1-c1ccc(C(=O)NCC2CCCO2)cc1 (centres undefined) | 1 | -1
CCC(CC)C(O)CNC(=O)c1ccc(N2CCC(O)CC2)cc1 (centres undefined) | -8 | 616
COc1ccc(S(=O)(=O)NC(=O)C2(C)CCN2C(=O)c2ccc(C3CCCCC3)cc2)cc1 (centres undefined) | 11 | 10
Cc1ccc(CN2CCc3nc(SCC(=O)Nc4ccc(C)c(C)c4)[nH]c(=O)c3C2)cc1 | 11 | 13
CNC(=O)CCCn1nc(-c2ccco2)ccc1=O | 2 | 5
NC(=O)CSc1ccc(-c2ccc(-n3ccnc3)cc2)nn1 | 1 | 0
O=c1ccccn1Cc1cccc2ccccc12 | 6 | 5
CCOc1ccc(OCCNC(=O)c2sc3nc4n(c(=O)c3c2C)CCC4)cc1 | 0 | 18
CCOC(=O)C(Cc1ccc(Cl)cc1)NC(=O)c1ccc(SCC(=O)c2ccc(Cl)cc2)nc1 (centres undefined) | -7 | -14
Cc1cc2cc(C(=O)N3CCCC(N(C)C)CC3)ccc2o1 (centres undefined) | 3 | 11
N#CCCn1cc(C(=O)CN2C(=O)NC3(CCc4ccccc43)C2=O)c2ccccc21 (centres undefined) | 3 | 2
Next part
SMILES | NPYLR7 agonist | NPYLR7 agonist max-min
Cc1cccc(OCCSc2nc(O)cc(=O)n2C2CCCC2)c1 | 5 | 4
O=C(O)CCCCCN1C(=O)C2C3C=CC(C3)C2C1=O (centres undefined) | -8 | -16
CNc1nc(C(=O)N[C@@H]2CC[C@@H](N)C2)cs1 | -5 | -4
O=C(NCCCOc1cccc([N+](=O)[O-])c1)c1ccc(Br)cc1 | -4 | -7
O=C(Cc1ccsc1)NCC12CC3CC(CC(C3)C1)C2 | 9 | 5
CCOc1cc(/C=C2/N=C(c3ccc(NC(C)=O)cc3)OC2=O)ccc1OC(C)=O | -4 | -10
CCOC(=O)C(=O)N1c2cccc3c2[C@@H](C[C@H]1C(=O)OCC)CN(C)C3=O | 0 | 9
Cc1ccc(-n2nnc3c(=O)n(CC(=O)N4CCCc5ccccc54)cnc32)cc1 | 5 | 12
CC(C)c1nc2sc3c(NCCCN(C)C)ncnc3c2c2c1COC(C)(C)C2 | 6 | -1
CCN(C(=O)CCc1c[nH]c2ccccc12)C1CCS(=O)(=O)C1 (centres undefined) | 2 | 1
CCc1csc(CNC(=O)c2ccc(-c3ccc4c(c3)OCO4)nc2)n1 | 23 | 13
c1ccc(-c2noc(CN3CC[C@@H]4CCCC[C@H]4C3)n2)cc1 | -5 | -7
O=C(Nc1ccnn1C1CCN(C(=O)c2cccc(-n3cccn3)c2)CC1)C1CC1 | -7 | -8
CCOC(=O)c1oc2cccc(OC(C)=O)c2c1C | -5 | -7
COc1cc(OC)cc(C(=O)Nc2cccc(-c3nc4cc(C)cc(C)c4o3)c2C)c1 | -8 | -11
O[C@@H]1CCN(Cc2cn(C3CCN(C4Cc5ccccc5C4)CC3)nn2)C1 | 4 | -2
COc1ccccc1OCCCN1C(=O)C(O)(CC(C)=O)c2cc(Cl)ccc21 (centres undefined) | 1 | 10
CCCCn1ncc(C)c1NC(=O)[C@H]1CCCO1 | 3 | -4
O=C(NCc1n[nH]c(=S)n1-c1ccc(Cl)c(Cl)c1)c1c(F)cccc1Cl | -1 | -2
O=C(c1nn2c(C(F)(F)F)cc(-c3ccccc3)nc2c1Br)N1CCCCCC1 | 6 | 4
C1=C(CN2CCCC2c2ccsc2)N2CCCN=C2S1 (centres undefined) | 5 | 2
O=C(NCCN1CCOCC1)c1coc(CN(Cc2ccc(Cl)cc2)Cc2cccc(C(F)(F)F)c2)n1 | 19 | 26
Cc1nc2ccc(F)cc2n1C1CCN(C(=O)C2=CCCC2)CC1 | 6 | 21
COc1ccc(C(=O)N2C(C(=O)O)COC23CCN(C(=O)c2ccccc2Cl)CC3)cc1 (centres undefined) | 4 | 15
CCOc1ccc(N2CCNC(C)C2=O)cc1 (centres undefined) | -4 | -1
The results go on.
SMILES | NPYLR7 agonist | NPYLR7 agonist max-min
FC(F)(F)c1ccc(Cn2c3ccccc3c3nc4ccccc4nc32)cc1 | -10 | -16
Cn1ccn2ncc(CO)c12 | -1 | 7
CC(=O)c1cccc(OCc2cc(C(=O)NCC3CCOCC3)n[nH]2)c1 | 12 | 5
COCCNC(=O)c1cc(NC(=O)C(c2ccccc2)c2ccccc2)ccc1N1CCN(c2ccccc2OC)CC1 | 9 | 15
O=C(Nc1ccccc1CC(F)(F)F)N1CCC[C@H]1CO | 10 | 6
COc1cc(CC2(CCC(=O)NCc3cc4cc(Cl)ccc4[nH]3)CCC(=O)N2)ccc1F (centres undefined) | -5 | -9
Cc1cc(CN(C)C(C)C(=O)NC(N)=O)cc(C)c1OCC(F)(F)F (centres undefined) | 3 | 4
Cc1ccc(CN2CC(C(=O)NCC(=O)Nc3c(C)cc(C)cc3C)CC2=O)cc1 (centres undefined) | -1 | -1
CCOC(=O)C1=C(CNCc2cccs2)NC(=O)NC1c1ccccc1Cl (centres undefined) | 0 | 4
Cc1cc(C)n(C2CCN(Cc3cccn3-c3nccs3)C2)n1 (centres undefined) | 13 | 7
COC[C@H]1C[C@H]2C[C@@H](O)[C@H](N(C)Cc3cccc(F)c3)[C@]2(O)CO1 | 2 | 6
CC(C)CNC(=O)c1cc(NS(=O)(=O)c2ccc3ccccc3c2)ccc1N1CCc2ccccc2C1 | -7 | -6
Cc1noc(-c2ccccc2Cl)c1C(=O)NCc1ccc(C(F)(F)F)cc1 | 3 | -2
CC1(C2CCN(C(=O)/C=C/c3ccccc3F)CC2)NC(=O)N(C2Cc3ccccc3C2)C1=O (centres undefined) | 21 | 5
CC(NC(=O)c1ccc(OC2CCN(C(=O)C3CC3)CC2)cc1)c1ccccc1 (centres undefined) | 9 | 3
COCCNC(=O)NCC(C)c1ccccc1OC (centres undefined) | -8 | -8
CNC(=O)CN1c2ccccc2C(=O)N(C)C12C(=O)Nc1ccc(C(C)(C)C)cc12 (centres undefined) | 2 | 0
O=C(NCCc1c[nH]c2ccccc12)c1ccco1 | 15 | 11
O=C(Nc1ccc(Cl)cc1)Nc1ccc(Nc2ccc(-n3cccn3)nn2)cc1 | -3 | -10
COc1ccc(CCNC(=O)c2ccc(-c3ccc(F)c(F)c3)s2)cc1 | 4 | 2
CC(C)c1nccn1CCC(=O)Nc1cccc2c1OCCO2 | -24 | -26
Cc1ccc(C(=O)Oc2cccc(-c3nc4c(C)cccn4c3NC(C)(C)CC(C)(C)C)c2)cc1[N+](=O)[O-] | -5 | 2
Cc1cc(C(=O)NC2CCN(C(=O)Nc3ccccc3)CC2)n[nH]1 | 10 | 8
O=C(Nc1ccccc1)C1CCN(C2CCCc3ccccc32)CC1 (centres undefined) | -2 | -2
CCCCc1nc(N2CCN(C(=O)Nc3cccc(C(F)(F)F)c3)CC2)c2c3c(sc2n1)CC(C)CC3 (centres undefined) | 17 | 18
Next results.
SMILES | NPYLR7 agonist | NPYLR7 agonist max-min
CCOC(=O)C1=C(C)NC(C)=C(C(=O)OCC)C1c1ccc(OC)cc1 | -4&0 | -10&-1
Cc1cccc(C)c1NS(=O)(=O)c1ccc2[nH]c(=O)oc2c1 | 9 | 4
Cc1ccn2cc(C(=O)N(C)CC(=O)Nc3c(Cl)cccc3Cl)nc2c1 | 2 | 1
COCCNC(=O)C1(C)Cc2c(-c3cccc(C(N)=O)c3)ccnc2O1 (centres undefined) | 7 | 23
COc1cc(C=C(C#N)c2nnc3n2CCCCC3)cc2c1OCCO2 | 4 | 0
CCCCCc1ccc(C(=O)CSc2nnc(NC(=O)c3ccc(Cl)cc3Cl)s2)cc1 | 2 | 15
O=C(Cn1c2ccccc2c(=O)c2ccccc21)NCc1ccccc1 | -1 | -7
CCc1nc2ccc(C(=O)Nc3cc(-c4ccccc4)ccc3OC)cn2c1N(C)Cc1ccc(Cl)cc1 | -5 | 33
CC(C)N(CC(=O)Nc1nc(CC(=O)NCCc2ccccn2)cs1)C(=O)c1ccc(Cl)c(Cl)c1 | -4 | 8
COc1ccccc1N1C(=O)CC(N2CCN(C(c3ccccc3)c3ccccc3)CC2)C1=O (centres undefined) | -7 | -13

Quoted from the results shown, 7 compounds:
SMILES | NPYLR7 agonist | NPYLR7 agonist max-min
CCOC(=O)C1=C(C)NC(C)=C(C(=O)OCC)C1c1ccc(OC)cc1 | -4&0 | -10&-1
Cc1cccc(C)c1NS(=O)(=O)c1ccc2[nH]c(=O)oc2c1 | 9 | 4
Cc1ccn2cc(C(=O)N(C)CC(=O)Nc3c(Cl)cccc3Cl)nc2c1 | 2 | 1
COCCNC(=O)C1(C)Cc2c(-c3cccc(C(N)=O)c3)ccnc2O1 (centres undefined) | 7 | 23
COc1cc(C=C(C#N)c2nnc3n2CCCCC3)cc2c1OCCO2 | 4 | 0
CCCCCc1ccc(C(=O)CSc2nnc(NC(=O)c3ccc(Cl)cc3Cl)s2)cc1 | 2 | 15
O=C(Cn1c2ccccc2c(=O)c2ccccc21)NCc1ccccc1 | -1 | -7
